Assay outcomes: PubChem, National Center for Advancing Translational Sciences (NCATS)
Rango complex inh – qHTS Assay for Inhibitors of Rango (Ran-regulated importin-beta cargo) - Importin beta complex formation | Rango CFP/YFP FRET sensor + importin beta, 45 min | Potency, µM (series often up to 92.2 µM), for inactives: at the top dose inhibition of complex formation | 0.031% of 340,000 active | Importin subunit beta-1 (Homo sapiens), Q14974; active = rising FRET ratio curve, often small or poorly fitted; inconclusive = mostly compound fluorescence or quenching in the first reads; inactive = flat curves in all reads;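 note: potency is the fitted concentration of half-maximal effect; 0% = DMSO wells and 100% = buffer wells lacking importin beta; nearly all actives have a fitted effect of over 15% in size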
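Inhibition scored from the CFP 486 nm/YFP 530 nm FRET ratio 45 min after adding 0.125 microM importin beta to 50 nM Rango biosensor preincubated 5 min with compound (room temperature, PBS with DTT, Tween-20, BSA). No-importin wells as positive control.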
miR-21 reporter – qHTS Assay for Modulators of miRNAs and/orActivators of miR-21; 340,000 tested, under 10 active; Potency, µM (titrated, usually from 38.3 µM), inactives show at the highest dose reporter change, positive = more light; HeLa miR-21 FLuc reporter, luciferase, 48 h; active = well fitted rising curve with a large enough effect; inconclusive = small, poorly fitted or top-dose-only effect; inactive = no such curve, though single readings can be large or run the other way;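 note: % of control where 0% means no effect; miR-21 action dims this reporter so a rising signal means less miR-21 action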
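Compounds were titrated across several concentrations (up to approximately 40 uM) and incubated 48 hours with HeLa miR-21-FLuc reporter cells (miR-21 target sequence downstream of FLuc, endogenous miR-21). Readout was firefly luciferase luminescence after lytic detection reagent.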
GLA inh pH 4.5 – qHTS Assay for Inhibitors of Human alpha-Galactosidase at pH 4.5. 230,000 tested, under 10 active. Alpha-galactosidase A (Homo sapiens), P06280. AID 1467, 2008. purified enzyme, 4-MU-alpha-Gal fluorescence, pH 4.5. activity change, negative = inhibition, % at 105 µM; inconclusive = small, poorly fitted or top-dose-only inhibition, or a rising curve; inactive = flat fitted curve, though single readings scatter; no compound was filed as active;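 note: 0% = full activity with enzyme and -100% = basal without enzyme; dose as in the result columns while the protocol names 77 µM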
Target sequence (P06280 whole entry, looked up): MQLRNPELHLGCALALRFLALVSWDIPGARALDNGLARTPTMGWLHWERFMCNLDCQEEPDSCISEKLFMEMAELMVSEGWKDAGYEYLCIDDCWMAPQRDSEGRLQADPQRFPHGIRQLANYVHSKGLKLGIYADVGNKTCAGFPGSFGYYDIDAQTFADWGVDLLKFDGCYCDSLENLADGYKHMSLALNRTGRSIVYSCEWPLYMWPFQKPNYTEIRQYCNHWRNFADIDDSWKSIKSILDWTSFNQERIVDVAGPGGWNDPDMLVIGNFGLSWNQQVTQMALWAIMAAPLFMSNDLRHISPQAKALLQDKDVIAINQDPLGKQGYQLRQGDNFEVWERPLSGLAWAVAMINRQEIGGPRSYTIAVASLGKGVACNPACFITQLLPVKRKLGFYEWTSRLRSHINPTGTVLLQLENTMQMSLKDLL
Rango dissoc inh – qHTS Assay for Inhibitors of RanGTP induced Rango (Ran-regulated importin-beta cargo) - Importin beta complex dissociation | Snurportin-1 (Homo sapiens) + GTP-binding nuclear protein Ran (Homo sapiens) + Importin … | Biochemical FRET Rango-importin beta, RanGTP-induced dissociation | Potency, µM (titrated, usually from 46.1 µM), for inactives: at the top dose activity change, negative = inhibition | 0.071% of 340,000 active | AID 540253, 2011; active means falling FRET ratio curve, often poorly fitted, with flat reads before Ran was added; inconclusive means other falling curves, or compound fluorescence or quenching; inactive means flat or rising ratio curve;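 note: potency is the fitted concentration of half-maximal effect; % of control where 0% means no effect; nearly all actives have a fitted effect of over 45% in size; -100% = wells without RanGTP and RCC1; the record marks most hits as doubtful in a second field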
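Rango/importin beta premix (0.1/0.25 uM final), PBS + 1 mM DTT + 0.02% Tween-20 + 0.1% BSA; cpd 5 min RT; FRET pre-read; + RanGTP-RCC1 (0.6 uM Ran, 2 mM GTP, 0.2 uM RCC1); 45 min RT; FRET post-read, ex 430, em 486/530 nm.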
* hit, by the source's call; ? = inconclusive; nt = not tested or not shown; & = joins results of further samples.

Values run as follows: Rango complex inh	miR-21 reporter	GLA inh pH 4.5	Rango dissoc inh
- CC(C)C(OC(=O)c1cccs1)C(=O)NC1CCCCC1 (configuration not stated)
  -2.2%	-7%	-11	3%
- Clc1ccc2nc(CSc3ncn[nH]3)cn2c1
  -4.2%	-36%	10	?
- CCC12CC3CC(C1)CC(C(=O)Nc1nn[nH]n1)(C3)C2
  -0.5%	-1%	3	12%
- O=C(NC(Cc1ccccc1)C(=O)O)/C(=C/c1ccc(F)cc1)NC(=O)c1ccccc1 (configuration not stated)
  2.1%	-4%	-3	21%
- COc1ccc(S(=O)(=O)Nc2cccc(NC(C)=O)c2)cc1
  -0.2%	4%	-2	-12%
- Cc1ccc(NC(=O)c2cc(N3C(=O)C=CC3=O)ccc2Cl)cc1C
  -0.6%	-9%	9	-3%
- CS(=O)(=O)N1CCN(c2ccccc2NC(=O)Nc2cccc(Cl)c2)CC1
  -0.1%	22%	nt	2%
- Cc1ccc(NC(=O)CSc2nnc(C3CC3)n2CC2CCCO2)c(C)c1 (configuration not stated)
  0.8%	15%	nt	18%
- O=C(Cn1cc2c(n1)CCCC2)NCc1ccccn1
  -5.5%	0%	-9	0%
- CCCN1CCN(C(=O)C2CCCN(c3ncnc4c3nc3n4CCCCC3)C2)CC1 (configuration not stated)
  0.8%	-8%	nt	0%
- CNC(=O)c1ccc(CN(C)CC(=O)Nc2ccccc2C(=O)NC2CC2)cc1
  -0.4%	nt	nt	-3%
- O=C(NN=C1CCCCCC1)c1ccncc1
  0.7%	-4%	nt	-11%
- O=C(Cn1cc(/C=N/O)c2ccccc21)N1CCOCC1
  1.1%	-1%	1	18%
- CCOCCCNc1nc2c([nH]1)c(=O)n(C)c(=O)n2C
  2.1%	7%	3	2%
- COc1cccc(NC(=O)COc2coc(CN3CCN(c4ccccc4)CC3)cc2=O)c1
  -0.8%	nt	nt	?

Later entries.
Values run as follows: Rango complex inh	miR-21 reporter	GLA inh pH 4.5	Rango dissoc inh
- CCCC(=O)Nc1cccc(NC(=O)c2ccc3c(c2)OCO3)c1
  -1.0%	-14%	-3	5%
- CCN(c1cccc(C)c1)S(=O)(=O)c1ccc2c(c1)NC(=O)CCS2
  0.1%	8%&0%	nt	4%
- O=C(N1CCCCCC1)n1c(Cc2ccccc2)nc2ccccc21
  4.0%	-11%	-4	-4%
- Cn1cnnc1SC1c2cccc3cccc(c23)C1NS(=O)(=O)c1ccc(Cl)cc1 (configuration not stated)
  -4.0%	7%	-6	1%
- CC1CCCN(CCCOc2ccc(Br)cc2Cl)C1 (configuration not stated)
  2.2%	-29%	-10	15%
- Cc1nnc(C)n1N
  -1.8%	0%	-8	7%
- CC(C)(C)OC(=O)[C@H](NC(=O)OCc1ccccc1)c1ccccc1
  4.3%	nt	nt	20%
- CCCNC(=O)CS(=O)Cc1nc(-c2ccccc2C)oc1C (configuration not stated)
  -2.8%	0%	-8	-23%
- CC(C)CCN1C(=O)c2ccc(C(=O)Nc3cc(C(=O)O)cc(C(=O)O)c3)cc2C1=O
  1.0%	-3%	nt	6%
- CS(=O)(=O)N1CCc2cc(C(=O)Nc3ccc(O)cc3)ccc21
  -3.6%	-19%	nt	-1%
- CCOC(=O)c1c(-c2ccccc2)csc1NC(=O)CSc1nncs1
  -0.2%	2%	0	-7%
- CCSc1nc2c(c(=O)[nH]1)C(c1cccnc1)C(C(=O)OC)=C(C)N2 (configuration not stated)
  0.8%	1%	-2	2%
- Cn1c(=O)[nH]c(NCCc2ccc(O)cc2)c([N+](=O)[O-])c1=O
  -2.5%	nt	nt	36%
- O=C(Cn1nnc(-c2ccc(F)cc2)n1)OCC(=O)c1ccccc1
  ?	0%	7	11%
- Cc1cc(C)c(/C=C2\C(=O)Nc3ccccc32)[nH]1
  ?	-5%	-7	?

The list goes on:
Values run as follows: Rango complex inh	miR-21 reporter	GLA inh pH 4.5	Rango dissoc inh
- CC1CCCCN1CCNC(=O)c1cc2c(-c3ccccc3F)nn(C)c2s1 (configuration not stated)
  -2.3%	-34%	-4	-2%
- Cc1ccc(C)c(OCCC(=O)NNC(=O)c2ccccc2F)c1
  0.2%	nt	nt	25%
- CCc1ccc(C(=O)COC(=O)c2cc([N+](=O)[O-])ccc2NCCO)cc1
  1.7%	-6%	-15	3%
- CCOC(=O)CSc1cc(-c2ccccc2)nc2ncnn12
  -1.5%	1%	0	9%
- CCC(C)(C(=O)NC1CCCCC1)N(C(=O)C1CCC(=O)N1)c1ccc(C)cc1 (configuration not stated)
  3.2%	-7%	-4	-1%
- CC1CC(C)CN(CCCNS(=O)(=O)c2cc(Br)cc3c2N(C(=O)C2CC2)CC3)C1 (configuration not stated)
  2.7%	0%	nt	20%
- CCOC(=O)CNC(=O)CSc1nnc(NC(=O)c2ccc(S(=O)(=O)N3CCOCC3)cc2)s1
  1.0%	-2%	nt	-3%
- COc1ccc(S(=O)(=O)NCc2ccccn2)cc1Br
  6.1%	-1%	nt	-10%
- O=C(Nc1ccccc1N1CCCCC1)c1ccc(N2C(=O)c3ccccc3C2=O)cc1
  0.8%	0%	-2	39%
- CCc1cccc(C)c1NC(=O)CSc1ncn[nH]1
  -2.6%	-2%	-1	14%
- O=C(Nc1cc2c3c(c1)C1CCCC1CN3CC1CCCC21)c1ccccc1 (configuration not stated)
  -2.0%	1%	3	-18%
- Cn1cc(C(=O)N/N=C/c2ccc([N+](=O)[O-])cc2)c2ccccc21
  -0.4%	-8%	0	1%
- CCCC(=O)OC/C(O)=C(\C#N)c1nc2ccccc2[nH]1
  ?	10%	-11	-13%
- CCCNC(=O)/C(=C/c1cn(S(=O)(=O)N(C)C)c2ccccc12)NC(=O)c1ccc(OC)cc1
  -0.5%	5%	-6	-12%
- CCOc1ccccc1NS(=O)(=O)c1ccc2[nH]c(=O)ccc2c1
  -0.9%	5%	nt	0%

(listing goes on)
Values run as follows: Rango complex inh	miR-21 reporter	GLA inh pH 4.5	Rango dissoc inh
- COc1cc2nc(N3CCN(c4cc(C)ccc4C)CC3)nc(N)c2cc1OC
  0.2%	?	nt	-12%
- CC(C)CCNC(=O)CCCOc1cc(=O)n(C)c2ccccc12
  -1.6%	-20%	-1	6%
- CCc1noc(C)c1C(=O)OCC(=O)N1CCc2ccccc21
  -0.2%	nt	nt	-16%
- CCOC(=O)N1CCN(C(=O)C2CCCN(S(=O)(=O)c3cc(C)ccc3OC)C2)CC1 (configuration not stated)
  0.5%	-2%	-4	-7%
- CCOC(=O)c1c(C)[nH]c(C(=O)COC(=O)CNC(=O)C2CCCCC2)c1C
  -6.1%	-6%	1	-1%
- COc1ccc(C(OC(=O)c2ccco2)C(=O)NC2CCCC2)cc1 (configuration not stated)
  4.6%	-3%	nt	11%
- CC(=O)[C@@]1(O)CC[C@H]2[C@@H]3C[C@H](C)C4=CC(=O)CC[C@]4(C)[C@H]3CC[C@@]21C
  2.5%	-11%	3&1	-1%
- Cc1cccc(C(=O)N(Cc2nc3ccccc3c(=O)[nH]2)C2CCCC2)c1
  2.7%	10%	-2	-4%
- COc1ccc2cc(C(C)C(=O)N3CCC(C)CC3)ccc2c1 (configuration not stated)
  5.0%	24%	nt	6%
- COCCNC(=O)C(OC(=O)c1cccs1)c1ccc(F)cc1 (configuration not stated)
  -2.0%	0%	1	20%
- COc1ccc(CCNC(=O)COC(=O)/C=C/c2cccs2)cc1OC
  -2.5%	9%	-1	14%
- CCC(C)(C)c1nnc(NC(=O)c2ccc([N+](=O)[O-])cc2)s1
  9.0%	-7%	14	-1%
- COc1cccc(NC(=O)c2ccco2)c1
  -2.1%	-38%	-8	1%
- O=C1OCCC1Sc1nnc(-c2cccs2)n1Cc1ccccc1 (configuration not stated)
  -0.3%	1%	-2	0%
- CC(=O)c1c(C)[nH]c(C(=O)N(C)C(c2ccccc2)c2ccccc2)c1C
  -1.5%	1%	-6	2%

Next part:
Values run as follows: Rango complex inh	miR-21 reporter	GLA inh pH 4.5	Rango dissoc inh
- O=C(COC(=O)c1ccc(Oc2ccccc2)cc1)Nc1nnc(-c2ccccc2)o1
  -2.8%	-1%	-9	4%
- COc1cccc(C(=O)Nc2ccccc2C(=O)N2CCCC2)c1
  3.6%	-3%	-11	-7%
- CCN(CCNC(=O)C1CC(=O)N(CCc2ccccc2)C1)c1ccccc1 (configuration not stated)
  5.0%	-5%	-5	-1%
- CN1CC(=O)N(CC(=O)NCc2ccc(F)cc2)c2ccccc2C1=O
  0.0%	-1%	2	0%
- COc1ccc(Cl)cc1C(=O)Nc1cccnc1
  0.5%	-12%	nt	-9%
- CCOC(=O)c1sc(NC(=O)c2cc3c(C)nn(-c4ccccc4)c3s2)nc1C
  nt	-2%	8	nt
- CC(=O)N1CCC(=NNc2ccc(S(N)(=O)=O)cc2[N+](=O)[O-])CC1
  1.2%	1%	-9	-10%
- COc1ccc(/C=C/C(=O)NNC(=O)c2cc(C)oc2C)cc1
  0.1%	nt	nt	-13%
- CN1C(=O)[C@@H]2[C@H](C1=O)[C@@H]1C(=O)Nc3ccccc3C(=O)N1[C@@H]2c1ccc(Br)cc1
  0.0%	nt	nt	-6%
- Cc1ccccc1NC(=O)NC1(C(=O)N2CCCC2)CCCCC1
  -5.1%	4%	8	2%
- CC12CCC(=O)N1C(C(=O)Nc1ccc(Cl)c(Cl)c1)CS2 (configuration not stated)
  1.0%	nt	nt	1%
- CCOC(=O)C1CCN(C(=O)CN2C(=O)CSc3ccc(S(=O)(=O)N4CCOCC4)cc32)CC1
  2.0%	1%	nt	-2%
- N#Cc1ccccc1OCC(=O)NCc1ccccc1CN1CCCC1
  ?	nt	nt	2%
- CN(CCCC(=O)Nc1ccc(Br)cc1F)S(=O)(=O)c1ccccc1
  1.9%	12%	nt	1%
- CCCn1c(N)c(C(=O)CN(C)CC(=O)Nc2ccc(F)cc2)c(=O)[nH]c1=O
  -0.1%	nt	nt	-2%

(list continues)
Values run as follows: Rango complex inh	miR-21 reporter	GLA inh pH 4.5	Rango dissoc inh
- CCOC(=O)C1CCN(C(=O)CSCc2nc(-c3ccc(OCC)cc3)oc2C)CC1
  -0.3%	19%	0	0%
- Cc1nn(-c2ccccc2)c(Cl)c1/C=C1/C(=N)N2N=C(C(C)C)SC2=NC1=O
  ?	0%	-2	?
- CCOC(=O)c1ccc(NC(=O)CCc2nnc3ccc(N4CCN(C)CC4)nn23)cc1
  3.6%	-5%	nt	9%
- CC(C)(C)NC(=O)COC(=O)c1ccc(F)cc1Cl
  -0.8%	-12%	-1	-3%
- O=C1CC(N2CCC(O)(c3ccc(Br)cc3)CC2)C(=O)N1c1ccc(Cl)cc1 (configuration not stated)
  4.2%	3%	-4	-7%
- O=C(Nc1ccc(SC(F)F)cc1)c1cc(-c2ccncc2)nc2ccccc12
  -2.1%	nt	nt	17%
- CC(C)Cc1nnc(NC(=O)CCC(=O)N2CCCCC2)s1
  -1.5%	0%	nt	7%
- CCOC(=O)c1ccc2ncc(C(=O)OCC)c(Nc3ccc(N4CCOCC4)cc3)c2c1
  1.9%	2%	-26	-14%
- Cc1sc2ncnc(SCC(=O)Nc3ccc(CN4CCCC4)cc3)c2c1C
  0.8%	nt	nt	17%
- Nc1c(-c2cccc(Cl)c2)cnn1-c1cccc([N+](=O)[O-])c1
  -0.1%	-10%	-2	-9%
- CN1CCCC(OC(=O)c2cc(Br)ccc2Cl)C1 (configuration not stated)
  1.6%	2%	-6	2%
- Cc1ccc(NC(=O)COC(=O)CCc2nc3ccccc3c(=O)[nH]2)cc1Cl
  -0.2%	1%	-3	-6%
- CC[C@]1(C(=O)OC)[C@H]2C(=O)N(Cc3ccccc3)C(=O)[C@H]2[C@H]2CN(C)C(=NCc3ccccc3)N21
  0.0%	nt	nt	1%
- COc1cc(CNCC(C)C)c(Br)cc1OCC(=O)NCc1ccccc1
  0.4%	-17%	-21	0%

These rows are one share of the data; rates above refer to the full screens.
